Mtb H37Rv = M. tuberculosis H37Rv growth inhibitors, H37Rv strain (AID 1626) | M. tuberculosis H37Rv growth inhibition; higher % means a stronger effect | inhibition, % at 10 µM; hits with a dose series show IC50 in µM | hit rate 0.95% among 220,000;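 active means confirmed in a dose series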;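 further: bacteria incubated seven days before Alamar blue readout; 0% = bacteria only wells and 100% = bacteria with antibiotic wells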
Mtb betalactam = beta-lactam sensitization of Mtb H37Rv. AID 434955. inhibition, % at 25 µM. hit rate 0.27% among 330,000. M. tuberculosis H37Rv growth with meropenem, percent inhibition; hits of this screen are not shown here;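 active means about 74% or more and at least 40 points above the plate without the antibiotic, then above 30% in a dose series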;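 further: growth measured after seven days incubation then overnight dye step; 0% = bacteria only wells and 100% = bacteria with antibiotic; twin plates without the antibiotic show which effects depend on it; some results filed as inactive read as strong as hits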
RecA splice inh = blocks M. tuberculosis RecA intein splicing; inhibition, %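 (about 9 µM by stock and volumes)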; P9WHJ3; hit rate 0.75% among 290,000; cell-free RecA intein splicing, fluorescence; in the data active means inhibition above about 30%;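 further: 0% = vehicle wells and 100% = reference inhibitor control wells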
Target sequence (P9WHJ3 whole entry, looked up, canonical isoform): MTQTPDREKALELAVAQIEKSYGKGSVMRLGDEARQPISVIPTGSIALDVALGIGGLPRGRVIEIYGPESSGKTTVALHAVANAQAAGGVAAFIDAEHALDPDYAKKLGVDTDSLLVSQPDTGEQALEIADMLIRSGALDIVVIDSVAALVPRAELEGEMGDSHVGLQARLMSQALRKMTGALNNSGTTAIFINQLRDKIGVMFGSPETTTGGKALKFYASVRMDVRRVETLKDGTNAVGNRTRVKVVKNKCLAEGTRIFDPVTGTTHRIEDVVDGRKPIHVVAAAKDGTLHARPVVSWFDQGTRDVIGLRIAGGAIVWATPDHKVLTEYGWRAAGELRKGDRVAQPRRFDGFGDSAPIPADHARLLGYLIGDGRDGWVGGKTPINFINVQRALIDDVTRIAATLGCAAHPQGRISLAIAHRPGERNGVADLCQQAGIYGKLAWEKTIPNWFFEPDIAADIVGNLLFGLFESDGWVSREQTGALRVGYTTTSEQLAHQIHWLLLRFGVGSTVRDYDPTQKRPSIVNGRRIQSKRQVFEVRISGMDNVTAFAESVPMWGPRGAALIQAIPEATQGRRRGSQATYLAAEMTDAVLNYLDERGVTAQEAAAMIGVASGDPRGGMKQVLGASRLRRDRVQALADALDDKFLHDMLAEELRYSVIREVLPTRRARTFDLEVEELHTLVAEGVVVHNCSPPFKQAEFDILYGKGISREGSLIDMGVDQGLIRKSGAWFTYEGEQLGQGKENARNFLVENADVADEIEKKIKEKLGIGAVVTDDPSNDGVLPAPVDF
Arbovirus inh = arbovirus infection inhibition | arbovirus infection cell-based antiviral screen | inhibition, % at 10 µM | hit rate 0.37% among 200,000;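 active means inhibition from about 30%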;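 further: bluetongue infection of BSR cells; cell survival read as ATP light after 72 h; 0% = infected wells without compound and 100% = uninfected wells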
YopH PTP inh = YopH (Yersinia) phosphatase inhibition. fluorescence Ex485/Em525. inhibition, %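 (about 10 µM by stock and volumes)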. hit rate 0.16% among 140,000. AID 898;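 active means inhibition of 50% or more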;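 further: controls were vehicle for no effect and minimum signal wells for full effect; inactives centre near -20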
Arbovirus inh repeat = further read-out of Arbovirus inh, marked with its call; inhibition, %; measured here: 10K subset replicate screen; many hits read low in the repeat;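 first of two repeat runs on a subset; 0% = infected and 100% = uninfected wells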
Starred values were filed as active, the others as inactive; . = no result given; & = joins results of further samples. This is a subset; count on the stated rates, not on these rows.

SMILES	Mtb H37Rv	Mtb betalactam	RecA splice inh	Arbovirus inh	YopH PTP inh	others
O=C(Cc1cccs1)OCC(=O)c1ccco1	6%	-7	2.6	6	-41
CC1CCN(c2ccc([N+](=O)[O-])cc2C(N)=O)CC1	5%	-8	3.8	-2	.
FC(F)(F)c1ccc2c(c1)[nH]c(=S)n2C1CC1	49%	98	6.5	-5	.
CC(C)(C)n1ncc2c(=O)n(CC(=O)N3CCCCC3)cnc21	-2%	-11	0.3	1	.
NC(=O)COc1ncnc2scc(-c3ccc(F)cc3)c12	4%	-5	-1.5	-3	.
CC(C)(C)OC(=O)N1CCC(CC2CC(c3ccc(Cl)cc3)=NO2)(C(=O)NCC2CCCCC2)CC1 (stereo not given)	.	70	4.9	.	.
O=C(O)CC1(CC(=O)NCc2ccncc2)CCCCC1	4%	-4	2.0	.	.
O=C(Nc1ccon1)c1cc(-c2ccccc2)nc2ccccc12	.	3	4.3	1	-1
Cc1ccc(S(=O)(=O)N(C)C)cc1NC(=O)COC(=O)/C=C/c1ccc(F)cc1	.	-11	1.0	.	.
CCC(C)(C)n1nnnc1C(c1cc2cc(OC)ccc2[nH]c1=O)N1CCc2ccccc21 (stereo not given)	24%	64	-0.5	17	-15
CN(Cc1cccnc1)C(=O)CCCc1c[nH]c2ccccc12	.	-6	1.2	.	.
CCCSc1nnc(NC(=O)c2ccco2)s1	2%	-2	1.0	4	.

Reprinted from the part before: 4 entries; new compounds follow.
SMILES	Mtb H37Rv	Mtb betalactam	RecA splice inh	Arbovirus inh	YopH PTP inh	others
Cc1ccc(S(=O)(=O)N(C)C)cc1NC(=O)COC(=O)/C=C/c1ccc(F)cc1	.	-11	1.0	.	.
CCC(C)(C)n1nnnc1C(c1cc2cc(OC)ccc2[nH]c1=O)N1CCc2ccccc21 (stereo not given)	24%	64	-0.5	17	-15
CN(Cc1cccnc1)C(=O)CCCc1c[nH]c2ccccc12	.	-6	1.2	.	.
CCCSc1nnc(NC(=O)c2ccco2)s1	2%	-2	1.0	4	.
Cc1cccc(C(=O)Oc2cc(C)[nH]c(=O)c2[N+](=O)[O-])c1	.	1	-4.4	.	.
CCc1ccc(OC(C)C(=O)N(Cc2ccccc2)C2CCS(=O)(=O)C2)cc1 (stereo not given)	.	-5	0.5	.	.
O=C(Oc1ccc(N(C(=O)c2ccncc2)S(=O)(=O)c2ccc(Cl)cc2)cc1)c1ccncc1	6%	1	38*	-3	.
CCOc1ccc(OCc2ccc(C(=O)NC(C)(C)C)o2)cc1	.	2	-2.2	.	.
CC(C)c1cc(C(=O)N2CCCC(N3CCN(c4ccccc4F)CC3)C2)nc(N)n1 (stereo not given)	.	1	1.4	.	.
Nc1nc(-c2ccc(Cl)cc2)nc(-c2ccc(Cl)cc2)n1	7%	-1	0.0	.	.
C=CCN1C(=O)C(Cc2ccc(Br)cc2)S/C1=N\N=C\c1ccco1 (stereo not given)	-14%	-2	-0.3	1	-4
O=C(Nc1ccc(NC(=O)c2cccs2)cc1)c1cccnc1	-4%	4	-0.6	4	.
CCOCCn1c(SCC)nc2c1c(=O)[nH]c(=O)n2C	-10%	3	-1.1	-7	-26
Cc1ccc(S(=O)(=O)N(CC(=O)Nc2cccc([N+](=O)[O-])c2)C2CCCCC2)cc1	1%	3	4.8	4	-37
Cc1ccc(S(=O)(=O)c2cccc(S(=O)(=O)N3CCCC3)c2)cc1S(=O)(=O)N1CCCC1	5%	-16	6.2	5	-22	Arbovirus inh repeat=6
Oc1oc(-c2ccccc2)nc1C=NCc1ccccc1	3%	-1	2.6	-36	-13
COc1ccc(S(=O)(=O)NC(C)C(=O)Nc2ccccc2F)cc1 (stereo not given)	-4%	-20	-1.2	-2	-37
O=C1CC(SCc2nc3ccccc3[nH]2)C(=O)N1c1cccc(Cl)c1 (stereo not given)	-6%	-20	2.4	0	6
Cc1ccc(C(=O)c2cnc3cc4c(cc3c2S(=O)(=O)c2ccccc2)OCCO4)cc1	10%	-4	21	14	-26
Cc1cc(NC(=O)CSc2nnc(NC(=O)C3CC(=O)N(c4ccccc4)C3)s2)no1 (stereo not given)	-5%	10	-1.1	5	9
CC1(c2ccc(Cl)cc2Cl)OCC(Cn2cncn2)O1 (stereo not given)	-12%	2	-1.9	-5	.
NC1=NC[C@H](c2ccccc2)N1CCc1cc(C(F)(F)F)cc(C(F)(F)F)c1	43%	98	2.4	.	.
Cc1cc(C)n2c(SCCN3C(=O)c4ccccc4C3=O)nnc2n1	-3%	-6	1.6	7	-12	Arbovirus inh repeat=-2
CCCCN1CCCC1CNC(=O)c1cc(C#N)c2ccccc2c1OC (stereo not given)	-8%&2%	5	-2.0	-6	.
O=C(CCn1cnnn1)Nc1ccc(F)cc1	-6%	-3	-1.2	4	.
COCCn1c(SCC(N)=O)nnc1-c1c[nH]c2ccccc12	-1%	8	0.4	3	.
C=CCN(C(=O)c1ccc2snnc2c1)c1ccccc1	.	5	-0.1	.	.
NS(=O)(=O)c1ccc(CCNC(=O)Cc2ccccc2[N+](=O)[O-])cc1	3%	.	-2.2	5	.
COc1ccccc1-c1coc2cc(O)cc(O)c2c1=O	3%	-12	2.4	4	-43	Arbovirus inh repeat=1
CCc1ccc(C(=O)NCc2ccc(Cl)cc2Cl)cc1	7%	-3	7.9	1	-25
Cc1ccc(C)c(NC(=S)NNc2ccc(F)cc2F)c1	.	97	2.1	.	.
Cc1ccc(Cl)c2c1NC(=O)C2(O)CC(=O)c1ccccc1O (stereo not given)	0%	-6	-5.9	-6	-39
Cc1sc(NC(=O)c2oc3ccccc3c2C)c(C#N)c1C	-7%	1	1.6	-2	-21
Cn1nc([N+](=O)[O-])nc1Oc1ccccc1F	8%	4	1.1	-1	.
CN(C(=O)NC1CCCCC1)c1ccccc1	1%	2	-3.6	4	.
N=C1C(c2nc3ccccc3c(=O)[nH]2)=C(O)CN1c1ccccc1	6%	.	.	-20	14
CCOC(=O)CNc1nc(C(C)(C)C)nc2c1nnn2Cc1ccccc1	.	-1	-2.8	.	.
CCOC(=O)c1c(-c2cccs2)csc1NC(=O)CN(CC)CC	1%	4	20	-7	-19
CCOC(=O)Cc1csc(NC(=O)CN2CCCCC2)n1	.	4	1.2	.	.
Cc1ccc(-c2nn(C)c(=O)c3ccccc23)cc1S(=O)(=O)N1CCCC1	6%	1	7.0	-17	-9	Arbovirus inh repeat=-15
CS/C(N)=N/N=C/c1ccc2c(c1)OCO2	3%	-4	-4.5	.	.
C#CCOCCOCCOCCNc1nc(N2CCN(C(=O)[C@H](CCC(=O)O)n3cc(C(N)[C@H](C)CC)nn3)CC2)nc(N2CCN(C(=O)[C@H](CCC(=O)O)n3cc(C(N)[C@H](C)CC)nn3)CC2)n1 (stereo not given in full)	-6%	-2	-2.0	11	.
CCC(Oc1cc(Cl)ccc1Cl)C(=O)NNC(=O)CCC(=O)O (stereo not given)	-6%	-1	-1.2	4	-19
CCCCc1cc(=O)oc2cc(C)cc(O)c12	-2%	11	-0.9	5	-6
O=C(c1ccc(COc2ccccc2Cl)o1)N1CCN(Cc2ccc3c(c2)OCO3)CC1	13%&-1%	59&3	17&10	-20&0	-18
CCN(C(=O)CN1C=NS(=O)(=O)c2ccccc21)c1ccccc1	2%	-2	4.5	2	-26
CC(NC(=O)c1cc(COc2ccccc2)on1)c1nccs1 (stereo not given)	.	4	1.1	.	.
CCOC(=O)[C@@H]1[C@H]2COc3ccc(Br)cc3[C@H]2N2C(=O)N(c3cccc(F)c3)C(=O)[C@]12C	.	5	5.6	.	.
Cc1ncc(CSCC(=O)Nc2cc(C(F)(F)F)ccc2Cl)c(CO)c1O	.	3	-1.2	.	.
O=C(Nc1ccccc1C(F)(F)F)c1cc(S(=O)(=O)N2CCC3(CC2)OCCO3)ccc1F	6%	-6	-0.7	-2	-43
Cc1c(Cl)c(C(F)(F)F)nn1CC(=O)NCc1ccco1	2%	2	1.0	1	.
Cc1cccc(S(=O)(=O)c2c(N)n(-c3ccccc3)c3nc4ccccc4nc23)c1	-2%	9	-8.6	3	-26
Cc1nn(-c2ccccc2)c(Cl)c1C(=O)NCCN(C)C	7%	1	-0.9	0	.
Clc1ccc(CSc2nccn2Cc2ccccc2)cc1	-3%	7	19	-8	-20
COc1ccc(NC(=O)CSCC(=O)NCc2ccco2)cc1	.	-4	1.3	.	.
COc1ccc(O)c(/C=N/NC(=S)Nc2cccc(S(=O)(=O)N(C)C)c2)c1	6%	-8	-86	-34	-3
COc1ccc(S(=O)(=O)N2CCCCC2)cc1NCC(=O)Nc1ccc(C)cc1	4%	-1	6.4	.	.
COc1ccc(NCc2nnc(SCC#N)n2-c2ccccc2OC)cc1	53%	-3	0.9	-17	2
CS(=O)(=O)c1ccc2nc(NC(=O)CN3C(=O)C4CC=CCC4C3=O)sc2c1 (stereo not given)	6%	-2	-0.7	14	.
CC(=O)c1cccc(-n2nnnc2SCC(=O)Nc2cccc(NC(=O)c3ccco3)c2)c1	-2%	-7	0.2	9	-4
CC(C)(NS(=O)(=O)OCC(Cl)(Cl)Cl)c1ccccc1	.	74	3.4	.	.
O=C(Nc1ccc2c(c1)OCO2)C(c1ccccc1)N1CCN(C(=O)c2ccco2)CC1 (stereo not given)	2%	-7	1.2	-4	-44
Cc1ccccc1N(C(=O)Cn1nnc(-c2cccs2)n1)C(C(=O)NCCC(C)C)c1ccco1 (stereo not given)	-6%	-14	9.3	4	-2
COC(=O)NC(=C(Cl)Cl)P(=O)(c1ccccc1)c1ccccc1	1%	-2	-0.9	.	.
Next part.
SMILES	Mtb H37Rv	Mtb betalactam	RecA splice inh	Arbovirus inh	YopH PTP inh	others
O=c1c(C=NCCN2CCNCC2)c(O)n(C2CCCCC2)c(=O)n1C1CCCCC1	6%	100	-2.2	-15	21
O=C(c1cc(-c2ccc(F)cc2)on1)N1CCCCCC1	.	8	-3.2	.	.
COc1ccccc1C1C(C(=O)c2sc(C)nc2C)=C(O)C(=O)N1CCN1CCOCC1 (stereo not given)	1%	-14	-2.5	2	-25
CC(=O)c1c(C)[nH]c(C(=O)Nc2cccc(C)n2)c1C	.	3	-1.0	.	.
Cc1ccc(NC(=S)N(CCCN2CCOCC2)Cc2ccco2)cc1	-1%	-7	-0.2	11	.
C[C@@H]1NC(=O)c2cc([N+](=O)[O-])cc(F)c2NCCC[C@@H](C(N)=O)NC(=O)[C@H](CC(N)=O)NC1=O	-7%	-5	4.1	10	-32
CC1CN(C(=S)NC2CCCC2)CC(C)O1 (stereo not given)	.	-3	3.4	.	.
CSc1cccc(NC(=S)N2CCC(N(C)C3CCCCC3)CC2)c1	.	-5	-1.8	-13	.
Cc1ccc(-c2nc(SCC(=O)NCC3CCCO3)c(-c3ccccc3)[nH]2)cc1 (stereo not given)	5%	8	-1.9	-8	-32
Cc1cccc(NC(=S)N(CCCN(C)C)Cc2cc3cc4c(cc3[nH]c2=O)OCO4)c1	-12%	0	-0.7	1	.
O=C(CN1C(=O)NC2(CCCC2)C1=O)NNC(=O)c1ccc(Br)cc1	.	-12	0.0	.	.
CN1C(=O)/C(=C\c2ccc(Br)s2)C(=O)NC1=S	.	3	-7.8	.	.
CC(=O)c1ccc(N2CCN(C(=O)CCS(=O)(=O)c3ccc4c(c3)NC(=O)CS4)CC2)cc1	.	-9	3.2	.	.
COC(=O)c1ccc(NC(=O)CSc2nnc(COc3c(C)cccc3C)o2)cc1	-3%	-6	0.4	12	-11
O=C(CSc1nc2ccccc2[nH]1)NC1CCS(=O)(=O)C1 (stereo not given)	-5%	11	-2.9	9	0
CC(=O)Nc1ccc(NC(=O)C(C)OC(=O)c2ccc(C)s2)cc1 (stereo not given)	7%	8	-2.0	0	.
Cc1ccc(/C=C(\NC(=O)c2ccccc2)C(=O)NC(Cc2ccccc2)C(=O)O)cc1 (stereo not given)	-8%	-8	-0.1	7	-14
COc1ccc(NC(=O)CSc2nc3[nH]ncc3c(=O)[nH]2)cc1OC	.	14	-0.8	.	.
N#C/C(=C\c1ccncc1)C(N)=O	0%	2	-3.6	-6	.
CC(CC(=O)N1CCN(C(=O)c2ccccc2)CC1)c1ccccc1 (stereo not given)	.	-6	0.2	.	.

Grouped by structure, the entries above containing a nitro group on carbon (6)
SMILES	Mtb H37Rv	Mtb betalactam	RecA splice inh	Arbovirus inh	YopH PTP inh	others
CC1CCN(c2ccc([N+](=O)[O-])cc2C(N)=O)CC1	5%	-8	3.8	-2	.
Cc1cccc(C(=O)Oc2cc(C)[nH]c(=O)c2[N+](=O)[O-])c1	.	1	-4.4	.	.
Cc1ccc(S(=O)(=O)N(CC(=O)Nc2cccc([N+](=O)[O-])c2)C2CCCCC2)cc1	1%	3	4.8	4	-37
NS(=O)(=O)c1ccc(CCNC(=O)Cc2ccccc2[N+](=O)[O-])cc1	3%	.	-2.2	5	.
Cn1nc([N+](=O)[O-])nc1Oc1ccccc1F	8%	4	1.1	-1	.
C[C@@H]1NC(=O)c2cc([N+](=O)[O-])cc(F)c2NCCC[C@@H](C(N)=O)NC(=O)[C@H](CC(N)=O)NC1=O	-7%	-5	4.1	10	-32

Assay outcomes as filed in PubChem.
